# Assay outcomes from PubChem.
# CSC inhib: blocks cancer stem cells. cancer stem cell-like cells viability, luminescence. inhibition, % at 7.5 µM. hit rate 1.1% among 300,000;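 active means mean at 75% or more and at least half the replicates too; inconclusive means mean and replicates disagree; tested in HMLE shEcad cells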;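 further: 0% = median of negative and 100% = median of positive control wells; the first replicate is given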
# eIF4H FP inh: inhibitors of RNA binding by human eIF4H | Q15056 | eIF4H fluorescence polarization binding assay | inhibition, % at 35 µM | hit rate 0.94% among 290,000 | AID 2012;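 active means 50% or more with normal probe brightness, or confirmed in later tests; inconclusive means above 50% with abnormal brightness, or retests that disagree; inactive means below 50% or failed in later tests; about a fifth of its hits are not listed in these tables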;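 further: calls also rest on retests at 20 µM and on dose response follow-up; 0% = protein and probe with vehicle and 100% = probe without protein; strong numbers were not always called active; many hits fall short of the cut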
# PABP FP inh: blocks human PABP binding to poly(A) RNA | P11940 | AID 2014 | inhibition, % at 35 µM | hit rate 1% among 290,000 | fluorescence polarization;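 active means 50% or more with normal probe brightness, or confirmed in later tests; inconclusive means above 50% with abnormal brightness, or retests that disagree; inactive means below 50% or failed in later tests; about a fifth of its hits are not listed in these tables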;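 further: calls also rest on retests at 20 µM and on dose response follow-up; controls were probe without protein and protein plus probe with vehicle; some compounds called inactive have numbers as strong as hits; many hits fall short of the cut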
# Target sequence (P11940 whole entry, looked up): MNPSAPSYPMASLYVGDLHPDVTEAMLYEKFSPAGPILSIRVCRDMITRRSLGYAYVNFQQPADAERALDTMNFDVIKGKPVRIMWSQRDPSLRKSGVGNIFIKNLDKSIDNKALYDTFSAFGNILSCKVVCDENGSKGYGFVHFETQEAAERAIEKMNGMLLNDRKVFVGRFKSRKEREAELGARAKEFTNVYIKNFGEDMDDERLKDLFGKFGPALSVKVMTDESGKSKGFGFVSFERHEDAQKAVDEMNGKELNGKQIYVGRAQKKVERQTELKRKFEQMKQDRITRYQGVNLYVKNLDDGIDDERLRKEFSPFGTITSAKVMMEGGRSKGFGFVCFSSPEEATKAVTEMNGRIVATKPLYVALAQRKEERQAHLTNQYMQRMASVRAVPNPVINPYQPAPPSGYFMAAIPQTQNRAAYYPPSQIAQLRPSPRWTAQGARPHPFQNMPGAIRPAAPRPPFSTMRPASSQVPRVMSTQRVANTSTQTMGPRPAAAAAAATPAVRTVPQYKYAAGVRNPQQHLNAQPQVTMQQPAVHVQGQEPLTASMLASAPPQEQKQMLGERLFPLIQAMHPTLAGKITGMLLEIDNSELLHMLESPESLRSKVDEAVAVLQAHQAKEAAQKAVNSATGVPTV
# Rce1 inhib: yeast Ras-converting enzyme inhibition | Q03530 | hit rate 0.27% among 290,000 | calls only | yeast membranes, quenched prenylated peptide cleavage fluorescence | AID 2563;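 active means fall in fluorescence gain of 50% or more versus controls, with final raw signal at or below 3038400; inconclusive means same 50% fall but final raw signal above 3038400; inactive means fall in fluorescence gain under 50%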;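 further: plate controls were neutral control wells for no effect and wells lacking membranes for full effect; tested at 10 µM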
# Yeast UUG start: yeast start codon fidelity modulation; S. cerevisiae UUG-firefly luciferase reporter, luminescence/redox ratio; activity score, % at 18.7 µM; AID 602363; hit rate 0.13% among 350,000;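 active means replicate mean at a twofold rise or more, about +100% in these data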;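 further: firefly luciferase made from a UUG start codon reports start codon fidelity; reporter light over untreated wells divided by growth signal over untreated wells; some hits fall short of that in this replicate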
# MT1-MMP act inh: inhibitors of human MT1-MMP activation. hit rate 0.061% among 360,000. AID 651647. P50281. HT1080 RFP-PRO-GFP cells, GFP/RFP ratio fluorescence, overnight; percent of plate control window, DMSO zero. GFP/RFP ratio change, % at 20 µM;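 active means GFP/RFP ratio change of at least 30% with cell ATP level not reduced by more than half and red fluorescence within 50% of control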; further: strong numbers were not always called active
#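 Material: RFP-PRO-GFP reporter HT1080 cells. Dosing: single-point 20 µM compound, 1% DMSO. Controls: DMSO and RFP-L50D-GFP cell wells. Timing: cells overnight before dosing, compound overnight, 37 °C, 5% CO2. Measure: GFP/RFP fluorescence ratio.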
# Env fusion inh: inhibitors of HIV Env-mediated cell fusion; inhibition, % at 12.3 µM; HeLa-JRFL Env/CEM21 cell fusion, luciferase; hit rate 1.1% among 360,000; AID 651610;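 active means mean replicate inhibition score of at least 50 and every replicate individually at or above 50; inconclusive means only one of the two criteria met; inactive means mean below 50 and not all replicates reaching 50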;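 further: 0% = plate neutral controls and 100% = maraviroc near 300 nM; one replicate is shown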
# MT1-MMP act inh RFP: second read-out of MT1-MMP act inh, no call of its own (marks repeat the call); RFP signal change, %; measured here: RFP expression control read;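 0 = vehicle wells; hits needed this value within 50% of zero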
# An asterisk follows results filed as active; i = inactive; ? = inconclusive; · = not tested or not shown; & = joins results of further samples; [ ] = remark or other dose. Only part of the results is shown. The share of hits here may be higher or lower than overall.
Molecule | CSC inhib | eIF4H FP inh | PABP FP inh | Rce1 inhib | Yeast UUG start | MT1-MMP act inh | MT1-MMP act inh RFP | Env fusion inh
CCC(NC(=O)Nn1cnnc1)(C(F)(F)F)C(F)(F)F | -2 | 3 | 2 | i | -21 | -4 | 5 | -16
COC(=O)c1cc(COC(=O)c2cccnc2SC)oc1C | 4 | -4 | 0 | i | -5 | 3 | 1 | -10
Cc1csc(NC(=O)CCn2c(=O)oc3ccccc32)n1 | -9 | -2 | -1 | i | -10 | -1 | -3 | -68
COc1ccc(NS(=O)(=O)c2cc(NC(=O)C3CCCO3)ccc2N2CCCC2)cc1 (stereo not given) | -7 | -4 | 1 | i | 5 | -1 | 1 | -9
O=C(CNC(=O)c1ccc(Cl)cc1)NC1CCCCC1 | -9 | -5 | -12 | i | 9 | -6 | -7 | -4
Cc1cccc(NC(=O)c2nc[nH]c2C(=O)Nc2ccccc2F)c1 | · | · | · | · | -3 | 6 | 3 | -19
O=C1OCCN1C(=O)[C@H]1[C@H](c2ccc(Cl)cc2)C(c2cccc(Cl)c2)=NN1c1ccc(Br)cc1 | · | · | · | · | -2 | -5 | -5 | -15
COc1ccc(CCNC(=O)C2CCN(S(=O)(=O)c3c(C)noc3C)CC2)cc1OC | -20 | 2 | -3 | i | 10 | 1 | 1 | -23
C[C@H](CO)N1C[C@H](C)[C@@H](CN(C)C(=O)Nc2ccccc2)Oc2c(NC(=O)Nc3ccc(C(F)(F)F)cc3)cccc2C1=O | 51 | · | · | · | 16&18 | 5 | -2 | 7[16.7 µM]
CC(NC(=O)COC(=O)C1CCN(c2ccc(C(F)(F)F)cn2)CC1)c1ccc(F)cc1 (stereo not given) | -9 | · | · | · | -2 | 5 | 5 | -2
CN1CCN(CCNC(=O)c2cn(Cc3ccccc3F)nn2)CC1 | 1 | -1 | 10 | i | · | -7 | -5 | -6
COc1ccc(Cn2nc(-c3ccccc3)c(N3CCCCC3)cc2=O)cc1 | 62 | 2 | -1 | i | · | 2 | -8 | 14
O=[N+]([O-])c1ccc(NC(c2ccccc2)c2ccc3cccnc3c2O)cc1 (stereo not given) | · | · | · | · | 16 | 8 | -10 | 62*
O=C(COc1ccccc1F)Nc1c2c(nn1-c1ccccc1)CS(=O)(=O)C2 | -14 | -1 | -7 | i | -9 | -1 | 3 | 2
Cc1cc(NC(=O)CCC(=O)N(CC(=O)NC2CCCC2)Cc2ccc(F)cc2)no1 | · | -6 | 2 | i | -1 | 2 | -2 | 0
O=c1ccc(NS(=O)(=O)c2ccc(Cl)cc2)cn1Cc1ccc(Cl)c(Cl)c1 | 8 | 5 | -6 | · | -1 | -3 | 1 | 13
C=CCn1c(-c2ccccc2)nc2nc3ccccc3nc21 | 23 | -9 | -3 | i | -9 | -3 | -3 | ·
COc1ccc(C(=O)CN2C(=O)c3ccccc3S2(=O)=O)cc1Br | -4 | -5 | 5 | i | -5 | -1 | -1 | 15
COc1cccc(C(=O)Nc2cc(C(=O)NCc3ccc(C)cc3)ccc2N2CCC3(CC2)CC(c2cccc(Br)c2)=NO3)c1 | 7 | · | · | · | -18 | -5 | 4 | 19
O=C(NC1CCSc2ccccc21)c1cc(S(=O)(=O)N2CCOCC2)ccc1F (stereo not given) | -8 | 3 | 10 | i | -8 | 1 | 4 | -1
COc1ccc(C(=O)NCC(=O)NCC2(N(C)C)CCCCC2)cc1OC | -13 | 0 | 5 | i | -21 | 4 | 6 | -13
O=C(CSc1nc(-c2ccc(F)cc2)cs1)NC(=O)NCc1ccco1 | -12 | 19 | 11 | i | -14 | -3 | 3 | ·
O=C(CCC(NC(=O)OCc1ccccc1)C(=O)O)OCc1ccccc1 (stereo not given) | -16 | 8 | 1 | i | 5 | 0 | 3 | -6
Cc1nc([N+](=O)[O-])c(NCCO)n1Cc1ccccc1 | -2 | -1 | 0 | i | · | 4 | 0 | 5
Cc1ccccc1S(=O)(=O)NC1OC(=O)C(Cl)=C1Cl (stereo not given) | -2 | 2 | 5 | i | -6 | 0 | 3 | -14

# Full records, looked up by structure. Order of values: CSC inhib, eIF4H FP inh, PABP FP inh, Rce1 inhib, Yeast UUG start, MT1-MMP act inh, MT1-MMP act inh RFP, Env fusion inh
# CN1CCN(CCNC(=O)c2cn(Cc3ccccc3F)nn2)CC1 as listed: 1, -1, 10, i, ·, -7, -5, -6
# C=CCn1c(-c2ccccc2)nc2nc3ccccc3nc21 as listed: 23, -9, -3, i, -9, -3, -3, ·

# The list continues.
Molecule | CSC inhib | eIF4H FP inh | PABP FP inh | Rce1 inhib | Yeast UUG start | MT1-MMP act inh | MT1-MMP act inh RFP | Env fusion inh
COc1ccc(NC(=O)c2ccc(COc3ccccc3OC)o2)cc1OC | 8 | 7 | 8 | i | -3 | 8 | 0 | ·
Cc1ccccc1C(=O)N/N=C/c1ccncc1 | -15 | 7 | -6 | i | -6 | 3 | 7 | -2
COc1cc(NC(=S)N2CCCC(C)C2)c(OC)cc1Cl (stereo not given) | -19 | 3 | ? | i | · | 3 | 3 | 10
CC(=O)Nc1c(NCC(C)C)c2ccccc2oc1=O | 9 | -1 | -5 | i | · | 1 | -1 | -55
CC(C)CSc1nnc(N)s1 | -3 | 2 | 4 | i | -19 | 5 | -4 | 20
O=C(c1ccccc1-c1nc(-c2ccccc2)no1)N1CCCC1 | -7 | 3 | -1 | i | -4 | 0 | 3 | ·
CC[C@]12c3[nH]c4cc(CCC(=O)N(C)C)ccc4c3CCN1C(=O)[C@@H](CC(=O)NCCc1ccccn1)C[C@@H]2C(=O)N1CCN(C(=O)C2CC2)CC1 | · | · | · | · | -8 | 2 | -2 | -1
CCn1cc(C(=O)N2CCCC(N3CCN(c4ccccc4C)CC3)C2)cn1 (stereo not given) | 4 | -8 | -2 | i | -2 | 6 | 7 | 3
Cc1cc2oc(=O)cc(CN3CCCC3)c2cc1C | · | · | · | · | -12 | 3 | 4 | -16
O=C(CSc1nnc(SCc2ccc(F)cc2)s1)Nc1ccc(C(=O)O)cc1 | -8 | -5 | 8 | i | -21 | -2 | 4 | 1
CC(NS(=O)(=O)c1ccc2[nH]c(=O)c(=O)[nH]c2c1)C(=O)O (stereo not given) | -4 | -1 | 6 | · | -23 | 2 | 3 | -14
CC1CN=C(N(C(=S)Nc2ccccc2)c2cccc(C(F)(F)F)c2)S1 (stereo not given) | 7 | 31 | 2 | i | -7 | 3 | -5 | 0
Cc1ccc(C(=O)NNC2CC(=O)N(c3ccc4c(c3)OCCO4)C2=O)cc1 (stereo not given) | 5 | 0 | 4 | i | · | -3 | 2 | 4
O=C(/C=C/c1cccc([N+](=O)[O-])c1)N1CCN(Cc2ccc3c(c2)OCO3)CC1 | 18 | -1 | 0 | i | · | 3 | -2 | 0
O=C(COc1ccc(Cl)cc1Br)N1CCN(c2ccccc2)CC1 | -6 | 4 | 0 | i | -11 | -3 | -9 | ·
CC(=O)Oc1ccc2c(c1)OC(c1ccccc1)CC21CC(C)(C)NC(=O)N1 (stereo not given) | -6 | -1 | -3 | i | -2 | 0 | 2 | -9
O=c1onc(-c2ccc(Cl)cc2)n1Cc1ccc(F)cc1 | 43 | 6 | 4 | i | -8 | 0 | 0 | -6
O=C(c1ccc(Cl)cc1)c1oc2ccccc2c1CS(=O)c1ccc(Cl)cc1 (stereo not given) | 6 | -7 | 3 | i | -3 | -9 | -7 | 49
Cc1cccc(N(C)c2cc(C)nc3ncnn23)c1 | -30 | 5 | -3 | i | -16 | 1 | 1 | -30
Cc1ccc(C)c(NC(=O)C2CC=CCC2C(=O)O)c1 (stereo not given) | -9 | 1 | 8 | i | -6 | -3 | -1 | ·
CCN1CCN(C(=S)c2ccc([N+](=O)[O-])cc2)CC1 | -9 | -6 | 3 | i | -11 | 1 | -1 | -4
CC1(C)CC(NC(=O)CCc2nnc(CCCCc3ccccc3)o2)CCO1 (stereo not given) | -16 | 6 | 6 | i | · | 6 | 5 | 9
C=CCN(C1CCCCC1)S(=O)(=O)c1ccc2c(c1)oc(=O)n2C | 2 | 7 | 4 | i | -7 | 3 | 4 | 2
COc1cc(C(=S)N2CCOCC2)cc(OC)c1OS(=O)(=O)c1ccc(C)cc1 | -16 | -1 | 0 | i | -18 | 4 | 3 | -14
CCN(CC)S(=O)(=O)c1ccc(N2CCCCC2)c(NC(=O)C2CCN(C(=O)c3ccc(F)cc3)CC2)c1 | -14 | · | · | i | · | 1 | -2 | 16

# The list goes on; the last 2 above are carried over.
Molecule | CSC inhib | eIF4H FP inh | PABP FP inh | Rce1 inhib | Yeast UUG start | MT1-MMP act inh | MT1-MMP act inh RFP | Env fusion inh
COc1cc(C(=S)N2CCOCC2)cc(OC)c1OS(=O)(=O)c1ccc(C)cc1 | -16 | -1 | 0 | i | -18 | 4 | 3 | -14
CCN(CC)S(=O)(=O)c1ccc(N2CCCCC2)c(NC(=O)C2CCN(C(=O)c3ccc(F)cc3)CC2)c1 | -14 | · | · | i | · | 1 | -2 | 16
CCN(CC)c1c(-c2ccccc2)c2cc(C)ccc2[nH]c1=O | · | -10 | 4 | i | -22 | 3 | 2 | 68*
CC1(C(=O)O)CCN1C(=O)c1cccc(C(F)(F)F)c1 (stereo not given) | · | · | · | · | -17 | -3 | -1 | -23
Cc1ccc(S(=O)(=O)CCC(=O)OCC(=O)N2c3ccccc3NC(=O)C2(C)C)cc1 | -8 | · | · | i | -17 | 2 | 1 | -31
CN=C(Nc1ccc(C)c(C)c1)SC1CC(=O)N(c2ccc(OC)cc2)C1=O (stereo not given) | -3 | -9 | -2 | i | · | -3 | -5 | 10
O=C1CC(c2ccccc2)Oc2ccccc21 (stereo not given) | · | · | · | · | -2 | -3 | 0 | 1
C=CCn1c(Cc2cccs2)nnc1SCC(=O)c1ccc2ccccc2c1 | 38 | 1 | 2 | i | -13 | -1 | -5 | 1

# 2 compounds from above, reduced to MT1-MMP act inh RFP.
compound	MT1-MMP act inh RFP
C=CCn1c(Cc2cccs2)nnc1SCC(=O)c1ccc2ccccc2c1	-5
CCN(CC)c1c(-c2ccccc2)c2cc(C)ccc2[nH]c1=O	2
